Screening results from PubChem.
AmpC inh no det: Promiscuous and Specific Inhibitors of AmpC Beta-Lactamase (assay without detergent) | P00811 | AID 585, 2007 | Potency, µM (top dose mostly 28.7 µM), for the others: top-dose activity change, negative = inhibition | AmpC nitrocefin hydrolysis, absorbance 480 nm, no detergent; potencies from a single point are estimates | hit rate 1.8% among 71,000; active = falling curve, for most hits resting on a single point; inconclusive = weak or doubtful change; inactive = flat or rising curve; note: % of control where 0% means no effect; about half of the hits show no inhibition at the top dose; a quarter of the inactives give rising signals
Target sequence (P00811 whole entry, looked up): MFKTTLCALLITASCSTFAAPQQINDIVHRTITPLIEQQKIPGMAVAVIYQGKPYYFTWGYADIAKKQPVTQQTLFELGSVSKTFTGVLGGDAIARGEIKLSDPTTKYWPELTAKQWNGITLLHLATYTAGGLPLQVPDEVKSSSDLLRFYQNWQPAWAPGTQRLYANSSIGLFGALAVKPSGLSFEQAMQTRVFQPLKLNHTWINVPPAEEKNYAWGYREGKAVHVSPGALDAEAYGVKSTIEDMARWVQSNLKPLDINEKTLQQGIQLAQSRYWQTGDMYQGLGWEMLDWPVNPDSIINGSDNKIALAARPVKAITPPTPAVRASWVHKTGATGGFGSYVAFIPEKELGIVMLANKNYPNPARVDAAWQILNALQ
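AmpC in 20 mM phosphate buffer pH 7.0 was preincubated 15 min at room temperature with compounds. Nitrocefin (800 uM stock) was then added and hydrolysis followed at 480 nm every 20 s for 4 min.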
* marks the source's active call; other numbers are inactive results; [ ] = dose if it differs, or a comment. Potency is the fitted concentration of half-maximal effect. These rows are one share of the data (hit frequency here may not be typical).

SMILES | AmpC inh no det
COc1ccc(CCNC(=O)CSc2ncnc3c2oc2ccccc23)cc1OC | 58%
CCOC(=O)C1=C(O)C(=O)N(c2ccc(S(N)(=O)=O)cc2)C1c1ccccc1 (stereo not drawn) | -14%
CSC1=C(C#N)C(CC(C)C)C2=C(CCCC2=O)N1 (stereo not drawn) | 4%
COC(=O)CSC1=NP(=S)(SCC(=O)OC)N2CCCC2=C1C#N (stereo not drawn) | 20%
O=C(CC1CCCC1)NCCc1cn2ccccc2n1 | 2%
COCCN1C(=O)c2ccccc2C(C(=O)NCCN(C)C)C1c1ccc(F)cc1 (stereo not drawn) | 8%
CC(C)Cn1c(SCC#N)nc2ccccc2c1=O | -9%
COc1ccc(S(=O)(=O)N2CCN(CC(=O)Nc3cccc(F)c3)CC2)cc1 | 52%
O=C1c2ccccc2C(=O)N1Cc1nc(-c2cccnc2)no1 | 13%
COC(=O)c1ccc(CSc2nc3ccccc3s2)o1 | -5%
COC(=O)c1ccc(NC(=O)COc2ccccc2OC)cc1 | 0%
O=C(OCC(=O)c1ccccc1Br)c1ccccn1 | -6%
Cc1ccnc(NC(=O)COc2ccc3oc4c(c3c2)CCCC4)c1 | 1%
CC1(C)CC(=O)C2=C(C1)Oc1ncn(Cc3ccco3)c(=N)c1C2c1ccccc1 (stereo not drawn) | 39%
Cn1c(=O)c2c(SCC(=O)N3CCCc4ccccc43)nc(CC(C)(C)C)nc2n(C)c1=O | 3%
COC(=O)c1ccc(C#CC(NP(=O)(c2ccccc2)c2ccccc2)c2ccccc2)cc1 (stereo not drawn) | 34%
Cc1ccc(C)c(NC(=O)CSc2nnc(-c3ccncc3)n2N)c1 | -1%
Cc1ccc(O)c(C(=O)c2cnn(C(=O)Cc3csc(C)n3)c2)c1 | 51%
CC1=C(C#N)C(=O)NC(C)(C)C1 | -12%
COC(=O)CCCC(=O)N1CCOCCN(C(=O)CCCC(=O)OC)CCOCC1 | 19%
CN(C)c1ncc2nc(-c3cccs3)c(=O)n(Cc3cccs3)c2n1 | 2%
COc1cccc(C(N)CC(=O)O)c1 (stereo not drawn) | 4%
O=C(c1ccc2c(c1)OCO2)n1nnc2ccccc21 | 3%
COc1cccc(-n2nnc3c(=O)n(CC(=O)N4CCCc5ccccc54)cnc32)c1 | 11%
COCCN(CCOC)C(=O)c1cc2sc3ccccc3c2s1 | 93%
Additional results.
SMILES | AmpC inh no det
O=C(NCCCCCNC(=O)c1cccnc1)c1cccnc1 | 6%
O=C(NCCCN1CCCCCC1)c1ccc2c(c1)NC(=O)C(N1CCOCC1)S2 (stereo not drawn) | 14%
Nn1c(SCC(=O)N2CCCc3ccccc32)nnc1-c1ccccc1 | -2%
CN(C)C(CNC(=O)c1cccc(S(=O)(=O)N2CC3(C)CC2CC(C)(C)C3)c1)c1ccco1 (stereo not drawn) | 90%
O=C(O)[C@@H]1[C@H](C(=O)O)[C@]2(Cl)C(Cl)=C(Cl)[C@@]1(Cl)C2(Cl)Cl | -11%[5.75 µM]
O=C(O)c1ccc(CSc2nnc(COc3ccc(Cl)cc3Cl)o2)cc1 | 0%
CC1(C)CCC=[N+]1[O-] | 7%
Cc1cc(C(=O)Nc2sc(C)c(C)c2C#N)no1 | -11%
COc1cccc(C(=O)N(CN2CCCC2=O)c2cccc(Cl)c2)c1OC | 21%
C=CCn1c(NC(C)c2cc(Cl)ccc2O)nc2ccccc21 (stereo not drawn) | -14%
Cc1cc2ccccc2c(=O)n1CC(=O)N1CCN(c2cccc(Cl)c2)CC1 | 9%
COc1ccccc1NS(=O)(=O)c1ccc(C(=O)OCC(=O)NCc2ccco2)cc1 | 19%
O=C(Cn1ncc2c1-c1ccccc1OC2)Nc1ccc(Cl)cn1 | -2%
O=S(=O)(NC1CCCC1)c1ccc(S(=O)(=O)N(Cc2cccs2)CC2CCCO2)cc1 (stereo not drawn) | 6%
O=C(CNS(=O)(=O)c1cccc2nsnc12)NCc1ccc(Cl)cc1 | 5%
CS(=O)(=O)N1CCC2(CCN(c3ccccn3)CC2)CC1 | 3%
CCOC(=O)N1CCN(C(=O)CN(c2cc(Cl)ccc2OC)S(=O)(=O)c2ccccc2)CC1 | 133%
Oc1cc(O)c2c(c1)O[C@@H](c1ccc(O)c(O)c1)[C@H](O[C@@]1(c3cc(O)c(O)c(O)c3)Oc3cc(O)cc(O)c3[C@H](O)[C@@H]1O)C2 | -21%[5.75 µM]
CCOCCCNC(=O)N1CCOCC1 | -14%
COc1ccccc1S(=O)(=O)Cc1ccc(C(=O)NCCN(C)C)o1 | -2%
C=C1C[C@]23C[C@@]1(O)CC[C@H]2[C@@]12C=C[C@H](O)[C@@](C)(C(=O)O1)[C@H]2[C@@H]3C(=O)O | -2%
COc1cc(OC)c2cc(-c3ccncc3)cnc2c1 | 85%
COc1cc(NS(C)(=O)=O)ccc1Nc1c2ccccc2nc2ccccc12 | -8%
O=C(CN1CCC(c2nc3ccccc3s2)CC1)NCc1cccs1 | 72%
COc1cc(C2C(C#N)=C(N)OC3=C2C(=O)CCC3)ccc1OC(=O)N1CCOCC1 (stereo not drawn) | 4%
Next part:
SMILES | AmpC inh no det
Cc1cccn2c(=O)c3cc(C(=O)NCc4ccco4)c(=N)n(C(C)C)c3nc12 | 14%
Cc1cc(C(=O)COC(=O)c2ccc3c(c2)OCO3)c(C)n1Cc1cccs1 | 1%
Cc1nc(NC2CCCCC2)c2nc(-c3ccccc3)n(CCN(C)C)c2n1 | 140%
CC(CCc1ccccc1)NC(=O)c1ccncc1 (stereo not drawn) | 0%
Cc1ccc(C)c(Cn2nnc3c(=O)[nH]c(C4CCN(C(=O)c5cccs5)CC4)nc32)c1 | 42%
CCCC(C)C1(CC)C(=O)NC(=Nc2ccccc2OC)NC1=O (stereo not drawn) | -14%
COC(=O)c1cc(Cc2ccc(N)c(C(=O)OC)c2)ccc1N | 5%
O=C(OCc1cc(=O)n2c(n1)sc1ccccc12)c1ccc2c(=O)n3c(nc2c1)CCC3 | 41%
COc1ccc(S(=O)(=O)N2CCCC2C(=O)Nc2ccc(C(C)=O)cc2)cc1 (stereo not drawn) | 19%
CCOC(=O)C(NC(=O)CC)(Nc1ccc(S(=O)(=O)Nc2cc(C)on2)cc1)C(F)(F)F (stereo not drawn) | 0%
Cn1c(C(=O)N2CCC(C(=O)N3CCN(Cc4ccc5c(c4)OCO5)CC3)CC2)cc2sccc21 | 134%
O=C(C1CCC(=O)N1Cc1ccc(F)cc1)N1CCC2(CC1)OCCO2 (stereo not drawn) | -12%
COc1cccc(Nc2nnc(SCC(=O)N3CC(C)OC(C)C3)s2)c1 (stereo not drawn) | 21%
c1ccc2nc(N3CCOCC3)c(N3CCOCC3)nc2c1 | 4%
Fc1ccc(CN2CCCCCC2)c(F)c1 | -8%
CCCc1ccc2c(N)c(C#N)sc2n1 | -1%
COc1ccc(C2C3=C(CC(C)(C)CC3=O)Oc3ncn4nc(-c5cccnc5)nc4c32)cc1 (stereo not drawn) | 95%
Cc1c(C(=O)NCc2cccs2)oc2ccc(S(=O)(=O)N3CCOCC3)cc12 | 51%
COc1cccc(-c2nccc(-n3ccnc3)n2)c1 | 10µM*
COc1ccc(CNC(=O)C2CCN(S(=O)(=O)c3cccc4cccnc34)CC2)cc1 | 24%
CS(=O)(=O)N1CCC2(CCCN(c3ccccn3)C2)CC1 | 21%
COCCn1c(=O)cnc2cnc(Nc3ccccc3)nc21 | 5%
O=C(Nc1ccncc1)c1c(F)cccc1F | -12%
COCc1cc(=O)n2[nH]c(C)nc2n1 | -22%
CCCCc1ccc(-c2nc(-c3ccncc3)no2)cc1 | -10%
More compounds follow:
SMILES | AmpC inh no det
COC(=O)c1ccc(NS(=O)(=O)c2cc(C)ccc2OC)cc1 | 13%
CCCCn1c(CN2CCN(C)CC2)nc2ccccc21 | 8%
O=C(NCc1ccco1)c1ccc2c(=O)n(Cc3ccco3)c(SCC(=O)N3CCCC3)nc2c1 | 99%
CCCn1nnnc1NCc1ccccc1OCc1cccs1 | 1%
COc1ccc(OC)c(C2=NOC(C(=O)NCC3CCCO3)C2)c1 (stereo not drawn) | 16%
CCn1cc(C(=O)NCCC2=CCCCC2)c(=O)c2cc(S(=O)(=O)N(C)C)ccc21 | 38%
COCCCNC(=O)Nc1ccc(F)cc1F | -8%
Fc1ccc(Nc2ncnc3ccc(-c4ccoc4)cc23)cc1 | -9%
FC(F)(F)c1ccccc1-c1nccc(NCCN2CCOCC2)n1 | 36%
CC(NC(=O)Nc1ccccc1)C(c1cccs1)N1CCOCC1 (stereo not drawn) | 10%
CCOc1ccccc1N1CCN(C(=O)c2cccc(-c3ccc(O)cc3)c2)CC1 | 8%
Cn1c(=O)[nH]c(=O)c2c1nc(CN1CCOCC1)n2Cc1ccccc1 | 3%
COc1ccc(CNC2CC(=O)N(C)C2=O)cc1 (stereo not drawn) | -9%
Cn1c(CN2CCOCC2)nnc1SCC(=O)Nc1nccs1 | 4%
Cn1c(=O)c2c(nc(SCCOc3ccc4ccc(=O)oc4c3)n2C)n(C)c1=O | 0%
CCOC(=O)C1CCN(C(=O)CN2C(=O)C(CC)Oc3ccccc32)CC1 (stereo not drawn) | 21%
C[N+]1(C)CCC[C@H]1C(=O)[O-] | -13%[12.8 µM]
O=C(CCN1C(=O)c2ccccc2C1=O)Nc1ccccn1 | 1%
ClCBr | -7%
Cc1ccc(NC(=O)CN(c2ccccc2F)S(C)(=O)=O)cc1 | 6%
CCCCn1c(SCC(=O)NCc2ccco2)nnc1-c1ccco1 | 22%
Fc1cccc(Cl)c1CSc1nnnn1-c1ccc2c(c1)OCO2 | -15%
CCn1c(=S)sc2c(=O)[nH]c(C)nc21 | -7%
N[C@@H](CSCc1ccc(I)cc1)C(=O)O | 1%[5.75 µM]
Cc1cnc(C(=O)OCC(=O)c2csc(N3CCCCC3)n2)cn1 | 5%

Random excerpt: 2 records from the list
SMILES | AmpC inh no det
CC1(C)CC(=O)C2=C(C1)Oc1ncn(Cc3ccco3)c(=N)c1C2c1ccccc1 (stereo not drawn) | 39%
CCCCn1c(CN2CCN(C)CC2)nc2ccccc21 | 8%

The list goes on:
SMILES | AmpC inh no det
CCn1c(Cc2ccccc2)nnc1SCC(=O)Nc1ccc2c(c1)OCO2 | -12%
CC12CN3CC(C)(CN(C1)C31CCSCC1)C2=O | 4%
Cc1ccc(-c2noc(CCC(=O)Nc3cc(C)ccn3)n2)cc1 | -1%
O=C(NCc1ccccn1)C1CC(=O)N(C2CCCC2)C1 (stereo not drawn) | -6%
O=C(Nc1ccc(S(=O)(=O)Nc2nccs2)cc1)C1CCCCC1 | -15%
CNc1nc(N2CCc3ccccc32)ncc1F | 8%
O=C(Nc1ccccc1)N(CCCN1CCOCC1)Cc1cc2cc3c(cc2[nH]c1=O)OCCO3 | 93%
O=C1CN(Cc2ccccc2)C(=NCc2ccco2)S1 | 0%
Cc1ccc(S(=O)(=O)N[C@@H](C)C(=O)N2CCC(C(=O)N3CCC[C@H]3C(=O)O)CC2)cc1 | 6%
Cc1cc2nc(NC3=NCN(CCCN4CCOCC4)CN3)nc(C)c2cc1C | 3%
CC(=O)N1[C@H](C)C=C[C@]1(Cc1ccccc1)C(=O)NCc1ccccn1 | 8%
COc1cccc(CNc2ccc3c(c2)ncn3C(C)C)c1OC | 38%
COc1ccc(COn2c(=O)c(C)[n+]([O-])c3ccccc32)cc1OC | 44%
COc1cccc(NS(=O)(=O)c2ccc(NC(C)=O)cc2)c1 | -6%
CC(=O)c1ccc(O)c(CN(C2CCCCC2)C2CCCCC2)c1O | 0%[5.75 µM]
COc1cccc(C(=O)N2CCN(c3ncccn3)CC2)c1 | 4%
CCCCCCOc1ccc(C(CC(=O)O)C(N)=O)cc1 (stereo not drawn) | 7%
CN(Cc1ccccc1)Cc1nc2c(c(=O)n(C)c(=O)n2C)n1Cc1ccc(F)cc1 | 121%
Oc1ccccc1CN1CCCN(Cc2ccccc2O)C1 | -11%
CCOC(=O)C1CCCN(c2c(N3CCN(c4ccccn4)CC3)c(=O)c2=O)C1 (stereo not drawn) | 4µM*[single pt active]
FC(F)(F)c1nnc2ccc(N3CCCCCC3)nn12 | 39%
CC(=NCC1CCCO1)c1c(O)n(C)c(=O)n(C)c1=O (stereo not drawn) | 8%
Cc1nn(-c2ccccc2)c2[nH]c(C(F)(F)F)cc(=O)c12 | -22%
O=C(O)c1oc2ccccc2c1-n1cccc1 | -15%
Cc1c(C(=O)N2CCc3ccccc3C2)sc2nc(-c3ccccc3)cn12 | 54%
COc1cccc(Cn2c(Oc3cccc(C)c3)nc3c2c(=O)n(C)c(=O)n3C)c1 | 107%
COc1ccccc1OCCOc1ccc(/C=N/n2cnnc2)cc1 | 52%

Another view of some results above:
SMILES	AmpC inh no det
CC(=O)N1[C@H](C)C=C[C@]1(Cc1ccccc1)C(=O)NCc1ccccn1	8%
COc1cccc(CNc2ccc3c(c2)ncn3C(C)C)c1OC	38%
COc1ccc(COn2c(=O)c(C)[n+]([O-])c3ccccc32)cc1OC	44%
COc1cccc(NS(=O)(=O)c2ccc(NC(C)=O)cc2)c1	-6%
CC(=O)c1ccc(O)c(CN(C2CCCCC2)C2CCCCC2)c1O	0%[5.75 µM]
COc1cccc(C(=O)N2CCN(c3ncccn3)CC2)c1	4%
CCCCCCOc1ccc(C(CC(=O)O)C(N)=O)cc1 (stereo not drawn)	7%
CN(Cc1ccccc1)Cc1nc2c(c(=O)n(C)c(=O)n2C)n1Cc1ccc(F)cc1	121%
Oc1ccccc1CN1CCCN(Cc2ccccc2O)C1	-11%
CCOC(=O)C1CCCN(c2c(N3CCN(c4ccccn4)CC3)c(=O)c2=O)C1 (stereo not drawn)	4µM*[single pt active]
FC(F)(F)c1nnc2ccc(N3CCCCCC3)nn12	39%
CC(=NCC1CCCO1)c1c(O)n(C)c(=O)n(C)c1=O (stereo not drawn)	8%
Cc1nn(-c2ccccc2)c2[nH]c(C(F)(F)F)cc(=O)c12	-22%
O=C(O)c1oc2ccccc2c1-n1cccc1	-15%
Cc1c(C(=O)N2CCc3ccccc3C2)sc2nc(-c3ccccc3)cn12	54%
COc1cccc(Cn2c(Oc3cccc(C)c3)nc3c2c(=O)n(C)c(=O)n3C)c1	107%
COc1ccccc1OCCOc1ccc(/C=N/n2cnnc2)cc1	52%
